Biofilm kill mix: mixture kills Candida albicans biofilm cells | C. albicans biofilm persisters + clotrimazole, fluorescence viability; primary screen in compound mixtures of four per well | inhibition, % at 7.6 µM | hit rate 0.02% among 120,000 | AID 1242;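 active means inhibition above 30.3% in the primary screen of four-compound pools, then above 30% when the compound was retested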;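 further: compounds exposed to preformed 24 h biofilms for 48 h; the number belongs to the whole pool; some results filed as inactive read as strong as hits; inactives centre near 12; 0% = biofilm with clotrimazole alone and 100% = kill control; retested singly at about 60 µM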
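Incubation: 24 h biofilm formation, then 48 h compound exposure, 37 °C | Material: C. albicans biofilms | Buffer or medium: RPMI/MOPS medium, pH 7.0 | Measured by: 2-h Alamar Blue fluorescence, 535/590 nm excitation/emission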
Active calls of the source: *.

SMILES	Biofilm kill mix
CC(C)N(Cc1nc(-c2ccc(Cl)cc2)no1)C(=O)/C=C/c1ccccc1	15
CCC(=O)Nc1cc(C(=O)O)ccc1Sc1ccc(Cl)cc1	18
COc1ccccc1OCCn1cc(/C=N/n2cnnc2)c2ccccc21	5
COc1ccc(NC(=O)c2c(N)no[n+]2[O-])cc1	7
COc1ccc(C(=O)NC(CC(=O)O)c2cc([N+](=O)[O-])ccc2Cl)cc1 (configuration not stated)	10
COc1ccc(NC(=O)CC2C(=O)N(c3cccc(OC)c3)C(=O)N2Cc2ccco2)cc1 (configuration not stated)	10
COc1ccc2cc(C(N)=O)/c(=N/NC(=O)c3ccco3)oc2c1	20
CNC(=O)Cn1nc(-c2ccc(C)c(S(=O)(=O)N(C)C)c2)c2ccccc2c1=O	10
Cc1ccc(CNC(=O)C(C(=O)NCc2ccc(C)o2)c2ncc(C(F)(F)F)cc2Cl)o1	0
O=C(COC(=O)CC(NC(=O)c1ccccc1Cl)c1ccccc1)Nc1cccc(F)c1 (configuration not stated)	6
CCOc1cnc(-c2ccccc2F)o1	-30
O=C(Nc1cccc(Cl)c1)Nc1ccc2c(c1)C(=O)OC2	5
O=C(COC(=O)COc1ccc2ccccc2c1)NC1CCCc2ccccc21 (configuration not stated)	19
COc1ccc(N2CC(C(=O)Nc3ccc(S(=O)(=O)N4CCOCC4)cc3)CC2=O)cc1 (configuration not stated)	15
CCOc1[nH]n(-c2ccccc2)c(=O)c1C=NCC(=O)OC	6
O=C(c1ccc(C(F)(F)F)cc1)C1CCCN(Cc2cccn2-c2ncccn2)C1 (configuration not stated)	11
O=C(CCCOc1ccc(Cl)cc1Cl)N/N=C/c1ccc(Cl)cc1	-3
Clc1cccc(Cl)c1CO/N=C/c1cccs1	13
COc1cc(SC)ccc1C(=O)Nc1ccccn1	12
CC1(C)CCC(=O)N(c2ccccc2)C1=O	22
Cc1cccc(C)c1NC(=O)CN(C)CC(=O)Nc1ccccc1Oc1ccccc1	2
Cc1ccc(S(=O)(=O)N(Cc2n[nH]c(=S)n2-c2ccccc2)c2cccc(Cl)c2)cc1	12
O=C(c1ccco1)N1CCN(C(=S)NC2CC3CCC2C3)CC1 (configuration not stated)	12
CC1(C)C(=O)Nc2ccccc2N1C(=O)COC(=O)Cn1cnc2ccccc2c1=O	-2
COCCn1c(SCC(=O)NCCc2ccc(OC)c(OC)c2)nc2c([nH]c3ccccc32)c1=O	20

As a working copy, some entries already given.
SMILES	Biofilm kill mix
CC1(C)C(=O)Nc2ccccc2N1C(=O)COC(=O)Cn1cnc2ccccc2c1=O	-2
COCCn1c(SCC(=O)NCCc2ccc(OC)c(OC)c2)nc2c([nH]c3ccccc32)c1=O	20

Rewritten as a markdown table: 6 of the compounds above.
| smiles | Biofilm kill mix |
| --- | --- |
| O=C(CCCOc1ccc(Cl)cc1Cl)N/N=C/c1ccc(Cl)cc1 | -3 |
| Clc1cccc(Cl)c1CO/N=C/c1cccs1 | 13 |
| COc1cc(SC)ccc1C(=O)Nc1ccccn1 | 12 |
| CC1(C)CCC(=O)N(c2ccccc2)C1=O | 22 |
| Cc1cccc(C)c1NC(=O)CN(C)CC(=O)Nc1ccccc1Oc1ccccc1 | 2 |
| Cc1ccc(S(=O)(=O)N(Cc2n[nH]c(=S)n2-c2ccccc2)c2cccc(Cl)c2)cc1 | 12 |

Next part:
SMILES	Biofilm kill mix
O=C(NCCN1C(=O)S/C(=C\c2cccnc2)C1=O)c1cc(S(=O)(=O)N2CCOCC2)ccc1F	16
COCCNC(=O)C1Cc2c(ccc3ccccc23)O1 (configuration not stated)	11
C#CCNC(=O)C1=C[C@H](c2ccc(Br)cc2)[C@@H](CCCO)[C@H](OCC)O1	21
O=C(c1ccc(NC(=S)Nc2ccc(F)cc2F)cc1)N1CCOCC1	12
CC(=O)c1ccc(NS(=O)(=O)c2ccc3ccccc3c2)cc1	21
O=C(Nc1nccs1)c1cc2cc(Cl)ccc2oc1=O	16
COc1ccc(NC2=C(Cl)C(=O)N(c3ccccc3)C2=O)c(OC)c1	10
O=[N+]([O-])c1cccc(/C=N/n2c(-c3cccnc3)n[nH]c2=S)c1	10
O=C(/C=C/c1cccs1)c1ccc([N+](=O)[O-])cc1	-6
CSc1nsc(SC)c1C(=O)Nc1ccc(Cl)cc1	12
O=C(NNC(=O)C1CCCCC1)c1ccc(Br)cc1	4
O=C(CN1CCC(Cc2ccccc2)CC1)NC(=O)NC1CCCCC1	2
COC(=O)c1ccccc1NC(=S)N(Cc1ccc2c(c1)OCO2)Cc1cc2ccc(OC)cc2[nH]c1=O	20
O=C(c1cccc(S(=O)(=O)N2CCCCC2)c1)N1CCc2ccccc21	13
CCOC(=O)C1=NN(c2ccccc2)C2=NC(C)=C(C(=O)OC)C(c3ccc(C)cc3)N12 (configuration not stated)	10
CCOC(=O)c1c(C)nc(C)c(C(=O)OCC)c1-c1ccc(OC)cc1	18
COc1cc(SC)ccc1C(=O)Nc1cc(C)ccn1	10
CCCN(CC1CC1)C(=O)CSc1ncnc2sccc12	7
Cc1ccc(S(=O)(=O)/N=C(/c2ccccc2)N2CCOCC2)c(C)c1	13
S=c1[nH]nc(-c2n[nH]c3c2CCC3)n1/N=C/C=C/c1ccccc1	32
CC(NC(=O)C1CCCCC1)C(c1cccs1)N1CCOCC1 (configuration not stated)	10
Cc1ccc(-c2nn(-c3cc(N4CCNCC4)ccc3[N+](=O)[O-])c(=O)c3ccccc23)cc1	15
COc1cc2ncnc(NCc3ccc(C)o3)c2cc1OC	5
CC1CCN(c2c(NCC3CCC(C(=O)NCc4ccccc4)CC3)c(=O)c2=O)CC1 (configuration not stated)	7
COc1ccccc1C(=O)Nc1ccc(S(=O)(=O)Nc2onc(C)c2C)cc1	28

(more compounds)
SMILES	Biofilm kill mix
COc1ccc(NC(=S)Nc2ccccc2)c(OC)c1	15
S=C(NC1CCCC1)NC1CCCC1	-9
Cc1[nH]cc(Br)c(=O)c1Oc1ncc(C(F)(F)F)cc1Cl	8
Cc1ccc(S(=O)(=O)/N=C(/c2ccccc2)N(C)c2ccc(O)cc2)cc1	8
C#CCOCCOCCOCCNc1nc(N2CCOCC2)nc(N2CCN(C(=O)[C@H]([C@@H](C)CC)n3cc([C@@H](N)CC(C)C)nn3)CC2)n1	13
COC(=O)c1sc(N(C)C)c(C#N)c1-c1ccccc1	38
Cc1nc(/C=C\C(=O)O)c2cc(C)oc2n1	12
O=S(=O)(/C=C/c1ccccc1)N1CCN(c2nc(-c3cccnc3)nc3ccccc23)CC1	18
CCOC(=O)CCc1c(C)c2ccc(OCc3cc([N+](=O)[O-])ccc3OC)c(C)c2oc1=O	13
COc1ccc(F)cc1C(=O)C1CCCN(C(=O)C2=C(C)OCCO2)C1 (configuration not stated)	11
Cc1cc(C)c(C(=O)Nc2ccccc2)c(CC(C)(C)C(=O)O)c1	9
CCC1=NNC(=O)C(CC(=O)Nc2ccccc2)c2cc(OC)c(OC)cc21 (configuration not stated)	12
CNc1nc(Oc2ccc(C(=O)OC)cc2)nc(SC)n1	20
O=C(Nc1ccc(S(=O)(=O)Nc2ncccn2)cc1)c1cnc(Cl)c(Cl)c1	20
Cc1cc(NC(=O)/C=C/C(=O)N(CC(=O)NC2CCCC2)c2ccc(F)cc2)no1	11
CCc1nnc(NC(=S)Nc2ccccc2)s1	8
O=C(NCc1ccc(Cl)cc1)C1CCCO1 (configuration not stated)	16
CCc1c(O)nc(SCC(=O)c2ccccc2)n(-c2ccccc2)c1=O	17
O=C(CSc1n[nH]c(=O)[nH]c1=O)N/N=C/C=C\c1ccccc1	20
O=C(NCCCn1ncc2ccccc21)c1cc(COc2c(F)cccc2F)on1	7
CCOC(=O)/C(=C/c1ccc(N2CCC(c3ccccc3)=N2)cc1)C(C)=O	15
COc1ccccc1Oc1nc2ccccn2c(=O)c1/C=C(\C#N)C(=O)Nc1c(C)n(C)n(-c2ccccc2)c1=O	4
Cc1nc2c3cc(F)ccc3n(Cc3ccc(F)cc3)c2s1	19
Cc1cc(C(=O)OCC(=O)NCc2ccccc2Cl)c(C)o1	12
Cc1c(Cl)cccc1NC(=O)Nc1ccccc1C(N)=O	7

The results go on:
SMILES	Biofilm kill mix
CCCCCCCC(=O)NNC(=O)c1c(O)c2ccccc2[nH]c1=O	19
O=C(Nc1ccc(S(=O)(=O)Nc2ccccc2)cc1)C1COc2ccccc2O1 (configuration not stated)	16
CCN1C(=O)C(F)(CC)C(=O)c2ccccc21 (configuration not stated)	22
CCC1=NC(c2ccc(Br)cc2)N(O)C1(C)C (configuration not stated)	4
Nc1nnc(SCCCC(=O)c2ccc(Br)cc2)s1	10
Cc1[nH]nc2c1C(CCc1ccccc1)C(C#N)=C(N)O2 (configuration not stated)	11
Cc1cccc(-n2c(SCC(N)=O)nc3c(c2=O)C2(CCCCC2)Cc2ccccc2-3)c1	3
O=C(Nc1ccc(S(=O)(=O)Nc2ncccn2)cc1)c1ccc(F)c(S(=O)(=O)N2CCOCC2)c1	14
COc1ccnc(Oc2ccccc2)n1	8
C1CC1Cc1noc(CN2CCN(CC3CC3)CC2)n1	6
COc1cc(CN2CCC(CO)(CCOc3ccccc3)CC2)cc(OC)c1OC	25
CN(C)c1ccc(N=C/C=C2/N(C)c3ccccc3C2(C)C)cc1	23
O=C(Cc1cccc2ccccc12)N/N=C/c1ccncc1	22
COc1ccccc1C1OC(c2cccc([N+](=O)[O-])c2)=NN1C(C)=O (configuration not stated)	17
Cc1ccc(OCC(=O)Nc2cc(-c3nn4c(C)nnc4s3)ccc2C)cc1	11
Cc1ccc(NC(=S)N(CCN(C)C)Cc2cccs2)cc1	17
CCn1ccc(C(=O)Nc2c(C)nn(Cc3c(F)c(F)c(F)c(F)c3F)c2C)n1	16
Cc1ccc(NS(=O)(=O)c2ccc(Br)cc2)nc1	16
COc1cc(/C=N/n2c(-c3ccc4c(c3)NC(=O)CO4)csc2=Nc2cccc(C)c2)ccc1O	8
Cc1nc(-c2ccc(NC(=O)/C=C\C(=O)O)cc2)cs1	24
Cc1c(Br)c([N+](=O)[O-])nn1CC(=O)NCC1CCCO1 (configuration not stated)	8
C/C(=N/NC(=O)c1ccc(Br)o1)c1cccc(NC(=O)c2ccc(C)o2)c1	-2
COc1cc(NC(=O)c2ccccc2)c(OC)cc1NC(=O)CN1CCCCC1	10
COc1ccccc1-c1nc(-c2ccccc2)nc(N2CCN(C)CC2)c1C#N	-25
O=C(O)CC1(CC(=O)Nc2cc(C(F)(F)F)cc(C(F)(F)F)c2)CCCCC1	39

Filtered by structure, the compounds so far containing a cyano group
SMILES	Biofilm kill mix
COC(=O)c1sc(N(C)C)c(C#N)c1-c1ccccc1	38
COc1ccccc1Oc1nc2ccccn2c(=O)c1/C=C(\C#N)C(=O)Nc1c(C)n(C)n(-c2ccccc2)c1=O	4
Cc1[nH]nc2c1C(CCc1ccccc1)C(C#N)=C(N)O2 (configuration not stated)	11
COc1ccccc1-c1nc(-c2ccccc2)nc(N2CCN(C)CC2)c1C#N	-25

New compounds follow:
SMILES	Biofilm kill mix
O=C(CC1SC(=Nc2ccccc2F)N(CCN2CCOCC2)C1=O)Nc1ccc(F)cc1F (configuration not stated)	8
CC(=O)Nc1ccc(NC(=O)COC(=O)[C@@H](NC(=O)c2ccc(F)cc2)C(C)C)cc1	11
COC(c1ccccc1)c1nnc(CCC(=O)NCc2ccc3ncccc3c2)o1 (configuration not stated)	15
Cc1ccc(CCNC(=O)C2CCC(CNc3c(N4CCC(C)CC4)c(=O)c3=O)CC2)cc1 (configuration not stated)	7
CCOC(=O)c1ccccc1NC(=S)N1CCC(C(N)=O)CC1	16
COc1ccc(Cc2c(O)nc(SCC(=O)N3CCOCC3)[nH]c2=O)cc1	12
COc1ccc(S(=O)(=O)N2CCC(C(=O)Nc3ccc(F)cc3)CC2)c2cccnc12	8
CCNC(=O)N1CCCC(C(=O)c2ccc3cc(OC)ccc3c2)C1 (configuration not stated)	1
C1CCCN(c2nc3nonc3nc2N2CCCCCC2)CC1	8
CCN(CC)C(=S)Nc1ccc(OC)cc1	21
O=S(=O)(NCc1ccccc1Cl)c1cccs1	18
COc1cc(OC)c2c(O)c3c(c(-c4c5c(c(O)c6c(OC)cc(OC)cc46)CO[C@@H](C)[C@H]5O)c2c1)[C@H](O)[C@H](C)OC3	17
CC(C)c1ccc(C(C(=O)NC(C)(C)C)N(C(=O)CNC(=O)c2ccco2)c2cccnc2)cc1 (configuration not stated)	18
O=C(N/N=C/c1c(O)n(-c2ccccc2Cl)c(=O)c2ccccc12)c1cccnc1	2
O=C(/C=C/c1ccccc1)N(Cc1ccc(Cl)cc1)C1CCS(=O)(=O)C1 (configuration not stated)	21
CC(=O)NCCn1c(SCC(=O)Nc2ccc(C)cc2)nc2ccccc2c1=O	10
CCOc1ccccc1NC(=O)Cn1c(-c2ccc(Cl)cc2)noc1=O	19
CCOC(=O)c1c(C)c[nH]c1C	9
CCC(=O)N1c2ccccc2C(N(C(=O)CC)c2ccccc2)CC1C (configuration not stated)	24
Cc1ccc(C)c(NC(=O)CN(C)C(=O)[C@@H](NC(=O)c2ccc(C(C)(C)C)cc2)C(C)C)c1	15
Cc1ccc(NC(=O)NC(=O)CSc2nnc(-c3ccc(Cl)cc3Cl)n2N)c(C)c1	14
Cc1cc(C)c2nc(NC(=O)c3ccc(OCC4CCCO4)cc3)sc2c1 (configuration not stated)	8
Cc1nn(CC(=O)NN)c(C)c1Br	1
Cc1ccc(OCC(=O)Nc2sc3c(c2C#N)CC(C)(C)NC3(C)C)cc1	15
O=C(Nc1ccc(Oc2ccc(C(=O)O)c(C(=O)O)c2)cc1)c1cccs1	21
O=C(CSc1nc(-c2ccccc2)c(-c2ccccc2)[nH]1)Nc1ccc2c(c1)OCO2	23
Cc1cc(F)ccc1S(=O)(=O)N1CCCOC1CNC(=O)C(=O)NCc1ccco1 (configuration not stated)	9

High-throughput results from PubChem.

The list is partial, so the mix of outcomes need not match the whole.
